# Compound activity from PubChem BioAssay.
# ALR inh: blocks human ALR sulfhydryl oxidase activity; P55789; inhibition, % (test concentration not listed); purified ALR, DTT oxidation, H2O2 HRP-luminol luminescence; AID 485317; hit rate 3.8% among 290,000;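 active means mean and each replicate at 75% or more; inconclusive means only one of the two met; inactive means neither met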;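 further: stock transfer was 7.5 nL into about 7.5 µL; 0% = neutral wells and 100% = wells with inactivated enzyme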
# E coli growth: E. coli growth inhibition. Escherichia coli growth, OD600, 23 h; active compounds read low. OD600 absorbance (no concentration beside the values). hit rate 0.21% among 330,000. AID 1053175;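 active means OD600 absorbance below the run mean of sample wells minus 3.6 SD, in any replicate, cut at about 0.56 in these data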;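 further: stock transfer was 300 nL into about 60 µL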
# FGF22 binding: binders of recombinant human FGF22 by thermal shift; Q9HCT0; SYPRO orange fluorescence; percent of sucrose octasulfate shift, DMSO zero; calls only at 9.99 µM; hit rate 1.5% among 340,000; AID 651658;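 active means melting point raised past a set limit in the mean and every replicate; inconclusive means no clear call; three in four hits are not shown here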
# MLL AF4-AF9 inh: MLL-AF4/AF9 protein interaction inhibition; AlphaScreen, biotin-AF4 peptide binding to FLAG-AF9; inhibition, % at 10 µM; hit rate 0.47% among 350,000;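 active means every replicate reaching a set inhibition limit, whatever the replicate mean, cut at about 25% in these data; inconclusive means mean inhibition reaches that limit but some replicates miss it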;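 further: 0% = plate neutral control median and 100% = total signal loss; the record names both 10 and 1 µM as test concentration; the first replicate is given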
# Target sequence (P42568 whole entry, looked up): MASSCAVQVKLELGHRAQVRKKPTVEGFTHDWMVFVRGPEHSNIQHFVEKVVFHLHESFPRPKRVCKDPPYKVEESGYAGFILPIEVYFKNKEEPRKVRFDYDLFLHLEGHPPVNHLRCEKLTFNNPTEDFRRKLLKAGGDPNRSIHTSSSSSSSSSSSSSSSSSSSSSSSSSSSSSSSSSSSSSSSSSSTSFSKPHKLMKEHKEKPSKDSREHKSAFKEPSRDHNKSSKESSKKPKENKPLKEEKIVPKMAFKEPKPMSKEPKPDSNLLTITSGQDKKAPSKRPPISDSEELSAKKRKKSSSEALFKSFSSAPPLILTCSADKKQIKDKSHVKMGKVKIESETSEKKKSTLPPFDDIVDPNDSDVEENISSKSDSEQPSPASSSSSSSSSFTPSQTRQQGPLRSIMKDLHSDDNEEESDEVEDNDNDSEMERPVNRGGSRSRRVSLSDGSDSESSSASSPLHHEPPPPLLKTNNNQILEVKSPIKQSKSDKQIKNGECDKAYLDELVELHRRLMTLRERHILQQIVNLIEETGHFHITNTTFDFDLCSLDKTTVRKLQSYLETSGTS
# Ecoli rRNA inh: selective bacterial rRNA inhibition in E. coli. E. coli WT GFP vs humanized-ribosome RFP mutants, fluorescence, 24 h; active compounds read low; DMSO median 0, no signal -100. GFP signal change (wild-type ribosome), % (test concentration not listed). hit rate 1.6% among 350,000;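 active means significant combined selectivity score with lowered wild-type GFP, culture density cut under 30%, mutant RFP and density less affected; inactive means any of these conditions unmet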; further: one replicate is shown; some compounds called inactive have numbers as strong as hits
# HNF4A DNA FP: change in binding of human HNF4 alpha to DNA | HNF4a-FITC DNA binding, fluorescence polarization, 1 h | activity change, % at 10 µM | hit rate 0.3% among 360,000 | P41235; in the data active means activity change above about 30%, passing the limit was not always enough;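 further: controls were the assay level and a saturating level of protein; the project sought stronger binding though the title names inhibitors; some compounds called inactive have numbers as strong as hits; positive values seem to mean higher polarization but the record does not say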
# Target sequence (P41235 whole entry, looked up): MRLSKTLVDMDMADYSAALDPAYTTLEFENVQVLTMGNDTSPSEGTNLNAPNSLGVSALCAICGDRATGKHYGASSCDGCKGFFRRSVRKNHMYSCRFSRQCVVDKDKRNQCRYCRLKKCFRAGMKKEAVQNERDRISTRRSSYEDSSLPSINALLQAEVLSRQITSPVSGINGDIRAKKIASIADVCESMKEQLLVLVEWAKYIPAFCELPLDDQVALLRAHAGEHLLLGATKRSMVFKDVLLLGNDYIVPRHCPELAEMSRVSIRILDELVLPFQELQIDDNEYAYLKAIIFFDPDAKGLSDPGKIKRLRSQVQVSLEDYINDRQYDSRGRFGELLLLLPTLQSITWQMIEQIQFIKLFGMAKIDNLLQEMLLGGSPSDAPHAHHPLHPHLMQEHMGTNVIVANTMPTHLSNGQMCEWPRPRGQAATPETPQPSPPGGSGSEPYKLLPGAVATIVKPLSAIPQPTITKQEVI
# Vif A3G: inhibitors of Vif binding to APOBEC3G peptide, primary screen, biochemical, TR-FRET, GST-Vif 1-94, biotin-A3G peptide, dose response retest (AID 1117319); hit rate 0.57% among 260,000; TR-FRET GST-Vif / biotin-A3G peptide binding; higher % means a stronger effect; test concentration not given here; strong numbers were not always called active; one-dose inhibition, %; IC50 in µM for titrated hits;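 active means above the screen mean plus three standard deviations and confirmed in dose response; inconclusive means results disagree or hit not tested in dose response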;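 further: Vif residues 1-94 fused to GST binding biotinylated APOBEC3G peptide 110-148; 0% = full assay without inhibitor and 100% = GST in place of GST-Vif; retest series ran down from 100 µM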
# Ecoli rRNA inh OD600: recorded beside Ecoli rRNA inh, whose call it bears; OD600 change, %; measured here: OD600 growth;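 optical density of the mix in the first replicate; 0 = DMSO median and -100 = no signal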
# Ecoli rRNA inh RFP: also measured in Ecoli rRNA inh; calls as there; RFP signal change, %; measured here: RFP humanized mutant strains;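 first replicate; 0 = DMSO median and -100 = no signal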
# Starred values were filed as active, the others as inactive; i = inactive; ? = inconclusive; . = no result given.
SMILES,ALR inh,E coli growth,FGF22 binding,MLL AF4-AF9 inh,Ecoli rRNA inh,Ecoli rRNA inh OD600,Ecoli rRNA inh RFP,HNF4A DNA FP,Vif A3G
COc1cccc(-c2nc(CS(=O)(=O)CC(=O)Nc3ccccc3Br)c(C)o2)c1,94*,0.69,i,0.1,3,7,2.1,2.0,.
CC(C)C[C@H](NC(=O)Nc1ccc2c(c1)OCCO2)C(=O)O,.,0.67,i,3.5,11,-1,-1.9,3.3,7%
CCOc1ccc(-c2cn3ccccc3n2)cc1,-5,0.63,i,3.3,-12,-12,-5.9,-2.1,23%
O=C(N/N=C/c1ccccc1F)c1cccc2ccccc12,-22,.,i,-2.6,-2,9,-0.1,-0.8,-2%
O=C(Nc1ccc(F)cc1)N1CCCCN2[C@H](C1)[C@H](c1ccc(C3=CCCCC3)cc1)[C@@H]2CO,.,.,i,1.9,-6,-30,20,.,.
Cc1cc(NC(=O)CSc2ccccc2)no1,16,0.7,.,.,.,.,.,9.6,1%
COc1cc(CN(C)Cc2cc(=O)oc3cc(C)c(Cl)cc23)ccc1OC(F)F,-5,0.71,i,-11,1,4,-2.2,-3.2,-3%
CCn1ncc(CNC(=O)C2(C)CC2(Br)Br)c1C (centres undefined),0,0.65,.,.,.,.,.,-2.3,4%
COc1cc(OC)cc(C(=O)NCC(=O)N2CCN(S(=O)(=O)c3ccccc3F)CC2)c1,-3,0.67,i,-1.4,0,-1,-1.0,-0.3,.
CCC(=O)N1C[C@@H](C)[C@H](OC)CN(C)C(=O)c2cc(NC(=O)Nc3cccc(F)c3)ccc2OC[C@@H]1C,.,.,i,4.8,-2,-2,0.3,.,.
O=C(NC1CCCCC1)N1CCN(c2ncccn2)CC1,4,0.65,.,.,.,.,.,1.6,2%
COc1ccc(N2CCN(C(=O)C3(S(=O)(=O)c4ccc(C)cc4)CC3)CC2)cc1,86*,0.71,i,2.9,-2,-4,-1.1,-3.2,.
CCOc1ccc(-n2c(C)c(C(C)=O)c(C(C)=O)c2C)cc1,-3,0.76,.,.,.,.,.,-0.3,5%
O=[N+]([O-])c1ccc(-c2nc(NCc3ccccc3)c3ccccc3n2)cc1,-1,0.73,i,1.5,6,4,-0.1,2.4,14%
O=C(CSc1ccccn1)Nc1ccc(N2CCOCC2)cc1,21,0.68,i,-1.8,9,9,2.3,2.3,15%
C[C@@H](NC(=O)C[C@@H]1C=C[C@H](NC(=O)C2CCC2)[C@@H](CO)O1)c1ccccc1,.,.,i,0.8,1,6,-2.1,.,.
COC(=O)[C@H](Cc1ccccc1)NC(=O)N1CCCCC1,-29,0.7,i,-7.5,17,9,2.9,-2.7,-1%
O=C(CCNC(=O)c1ccccc1Cl)OCC(=O)c1ccccc1,-5,0.68,i,0.0,4,4,3.5,3.8,-11%
CCc1ccc(C2C3=C(CC(C)(C)CC3=O)OC3=C2C(=O)CC(C)(C)C3)cc1,.,0.69,i,-0.2,11,10,2.8,-3.9,-37%
COc1ccccc1S(=O)(=O)N[C@H]1C=C[C@H](CC(=O)N2CCOCC2)O[C@H]1CO,.,.,i,-3.6,1,0,-2.9,.,.
O=C(Nc1ccc(S(=O)(=O)N2CCCC2)cc1)c1ccc2c(=O)n3c(nc2c1)CCCCC3,-21,0.69,.,.,.,.,.,8.3,-265%
O=[N+]([O-])c1cc(S(=O)(=O)CCCN2CCOCC2)ccc1F,-17,0.68,i,-4.1,22,21,-1.5,-1.0,11%
O=C(Oc1ccc2c(=O)c(Cl)coc2c1)c1ccncc1,1,0.7,.,.,.,.,.,-2.3,-6%
O=C(Nc1cccc(F)c1)N1C[C@@H]2[C@H](c3ccccc31)[C@@H](CO)N2C(=O)Cc1ccccn1,.,.,i,1.1,-45,-60,-13,.,.
CCc1c(C)sc(NC(=O)CN2CCN(C(=O)c3ccco3)CC2)c1C(=O)OC,39,0.68,i,3.4,.,.,.,2.1,.
CNC(=O)c1[nH]cnc1C(=O)Nc1ccccn1,1,0.68,i,-1.9,15,-6,0.7,2.2,-9%
Cc1ccccc1-c1ccc([C@H]2[C@H]3CN(C(=O)NC4CCCC4)CC(=O)N3[C@H]2CO)cc1,.,.,i,-2.6,1,-9,1.7,.,.
CCCCC(=O)Oc1c(S(=O)(=O)c2ccccc2)c(C)nn1C(C)(C)C,1,0.64,i,-3.7,6,4,8.4,1.3,4%
Cc1cc(NC(=O)c2ccc(Cl)cc2)n(CCC#N)n1,0,0.7,i,0.7,6,4,-2.5,-0.9,.
COc1ccc(C2=CC3=C(Br)C(=O)C(C)(O)C(=O)C3=CO2)cc1 (centres undefined),90*,.,.,.,.,.,.,-4.1,?
O=C(N/N=C/C(Br)=C/c1ccccc1)c1ccccc1[N+](=O)[O-],-3,.,i,4.4,-20,-16,-0.6,0.0,.
COc1cccc(NC(=O)CN(C)C(=O)c2ccc(OCC3CCCO3)cc2)c1 (centres undefined),.,0.66,i,0.2,0,-4,-1.4,-12,3%
C[C@@H]1CN([C@H](C)CO)C(=O)c2cc(C3=CCCCC3)cnc2O[C@@H]1CN(C)C(=O)c1ccccc1,.,.,i,-1.9,4,17,1.3,.,.
CO[C@H]1CN(C)C(=O)c2ccc(NC(=O)c3cccc(F)c3)cc2OC[C@@H](C)N(C(C)=O)C[C@@H]1C,.,.,i,-0.7,-2,-4,2.5,.,.
NC1=NC(=O)/C(=C\c2ccco2)S1,.,0.68,i,-7.0,7,8,8.5,-21,3.1µM*
Cc1ccc(C)c(N=Nc2nc3ccccc3n2C)c1,1,0.67,.,.,.,.,.,-4.1,?
COc1ccc(N/C(=N\c2nc(C)cc(C)n2)NC(C)=O)cc1OC,-32,0.71,.,.,.,.,.,3.4,9%
Cn1ncc(N=Cc2ccccc2)c1C(=O)Nc1cccc(Cl)c1,0,0.75,.,.,.,.,.,1.0,28%
COc1cccc(S(=O)(=O)N2C[C@@H](O)COC[C@H]3O[C@@H](CC(=O)N4CCN(C)CC4)CC[C@@H]32)c1,.,.,i,-1.0,-2,-3,-1.3,.,.
CCN(CC(=O)Nc1ccc(NC(C)=O)cc1)C(=O)Cc1coc2cc(C)c(C)cc12,14,0.62,.,-8.4,0,-10,0.6,-2.9,-2%
CCOc1ccc(NC(=O)CCNC(=O)c2ccco2)cc1,.,0.6,i,-19,-3,-18,20,-1.1,-3%
CCOc1cc(CNS(=O)(=O)c2ccc3c(c2)CC(=O)N3C)cc(OCC)c1OCC,3,0.69,i,0.7,11,9,7.9,2.5,3%
COc1ccc([N+](=O)[O-])cc1NC(=O)Cn1ccsc1=N,-4,0.68,.,.,.,.,.,-0.3,.
NC(CO)C(=O)NNCc1ccc(O)c(O)c1O (centres undefined),68,.,i,7.3,3,8,10,0.6,1.5µM*
CCC1(c2ccc(F)cc2)NC(=O)N(CC(=O)Nc2cccc(S(=O)(=O)N3CCCCC3)c2)C1=O (centres undefined),-5,.,.,-0.4,-5,-13,2.5,-2.7,.
O=C(CSc1ccccc1Cl)N1CCC(c2nc3ccccc3s2)CC1,-10,0.75,.,.,.,.,.,0.7,1%
Cn1c(C(=O)NCC2CCCO2)cc2c(=O)n(C)c3ccccc3c21 (centres undefined),.,0.72,i,-1.6,-12,-11,-2.4,5.5,19%
C=CCn1c(=O)c(C#N)cc2c(=O)n3ccccc3nc21,.,0.77,.,.,.,.,.,0.3,21%
COc1cc(OC)c(C2CC(=O)N3CN(c4ccc(C)cc4)CSC3=C2C#N)cc1OC (centres undefined),-36,0.61,.,.,.,.,.,-1.0,18%
O=C1COc2ccc(S(=O)(=O)NCCc3ccc(Cl)cc3)cc2N1,0,0.67,i,-1.2,4,-2,-3.3,2.0,.
Fc1ccc(/C=N/NC(=S)Nc2ccc(Cl)cc2Cl)cc1,-1,.,i,0.6,-11,-8,-0.6,0.6,2%
O=C(C[C@@H]1C[C@H]2c3cc(NC(=O)NC4CCCCC4)ccc3O[C@H]2[C@@H](CO)O1)NCC1CC1,.,.,i,-0.8,0,-8,-0.7,.,.
CC(=O)OCC1(O)CC23CCC4c5ccoc5CCC4(C)C2CCC1C3 (centres undefined),.,.,i,0.5,.,.,.,-1.2,.
COc1ccc(C(=O)Cc2nnc(C)s2)c(OC)c1,-3,0.6,.,.,.,.,.,-0.7,4%
CCN(CC)CCCN=Cc1c(O)n(-c2ccccc2C)c(=O)c2ccccc12,-2,0.64,i,-0.6,16,10,3.1,5.9,-3%
Cc1ccc(CSc2nc3ccsc3c(=O)n2Cc2ccccn2)cc1,.,0.7,.,.,.,.,.,-1.5,-4%
COc1ccc(CC(=O)O/N=C(\N)c2ccc(Br)cc2)cc1OC,-13,.,i,-6.8,-17,-21,-1.9,-0.4,.
CCC(=O)Nc1ccc2c(c1)C(=O)N(C)C[C@@H](OC)[C@@H](C)CN(C(=O)C1CCC1)[C@@H](C)CO2,.,.,i,0.4,-2,-1,-0.3,.,.
CCCCn1c(N)c(N(CC)C(=O)CCNC(=O)c2ccc(Cl)cc2)c(=O)[nH]c1=O,-4,0.6,i,-1.6,1,3,-0.3,-0.1,-12%
Cc1cc(C)c(S(=O)(=O)c2ccccc2)c(=O)[nH]1,0,0.65,i,0.2,4,8,2.4,1.1,.

# 3 entries from above, arranged by the number in MLL AF4-AF9 inh, rising.
molecule	MLL AF4-AF9 inh
CC(=O)OCC1(O)CC23CCC4c5ccoc5CCC4(C)C2CCC1C3 (centres undefined)	0.5
Cc1cc(NC(=O)c2ccc(Cl)cc2)n(CCC#N)n1	0.7
CCOc1ccc(-c2cn3ccccc3n2)cc1	3.3

# Further entries
SMILES,ALR inh,E coli growth,FGF22 binding,MLL AF4-AF9 inh,Ecoli rRNA inh,Ecoli rRNA inh OD600,Ecoli rRNA inh RFP,HNF4A DNA FP,Vif A3G
C=C1C(=O)OCC2C(C(=O)O)=CC3C(C)C(C)=CC123 (centres undefined),.,.,i,-2.1,1,-2,-5.2,6.5,-1%
COc1cc2c(cc1OC)C(C)N(C(=S)NC(=O)c1ccccc1)CC2 (centres undefined),5,0.68,i,-2.8,-17,-14,-0.9,1.7,-10%
CCOc1ccc(N2C(=O)NC(Cc3c[nH]c4ccccc34)C2=O)cc1 (centres undefined),-8,0.69,.,.,.,.,.,1.3,-2%
C[C@@H]1CN([C@@H](C)CO)C(=O)Cc2cc(NC(=O)Nc3ccccc3)ccc2O[C@H]1CN(C)S(=O)(=O)c1cccs1,.,.,i,-1.3,-2,-15,-0.6,.,.
COc1ccc(/C=C2\Oc3cc(OCC(=O)N4CC(O)C[C@H]4C(=O)O)ccc3C2=O)cc1OC (some centres undefined),.,0.66,i,-1.3,-4,4,2.8,0.6,.
O=C(Cc1ncc(C(F)(F)F)cc1Cl)NCc1ccco1,-2,0.66,.,-1.8,12,13,2.5,1.4,.
CCCCc1ccc(NC(=O)CSc2nc(=O)n(CCN(CC)CC)c3c2CCCC3)cc1,98*,0.67,i,1.0,-58,-80,-20,-0.6,-6%
CNC[C@@H]1OCCCC[C@@H](C)Oc2ccc(NC(=O)c3ccncc3)cc2C(=O)N([C@@H](C)CO)C[C@H]1C,.,.,i,3.7,4,5,-5.7,.,.
CCn1c(SCC(=O)N2CCCCC2)nc2c([nH]c3ccccc32)c1=O,.,.,i,-0.1,7,15,-3.4,0.3,-24%
Cc1occc1-c1nc(-c2ccccn2)no1,-5,0.77,.,.,.,.,.,-0.9,3%
Cc1ccc(CNC(=O)c2cc(-c3ccccc3)n(Cc3cc(C)no3)n2)cc1,-24,0.7,i,-2.0,-7,-19,-17,-0.8,.

# Not all compounds are listed; count on the stated rates, not on these rows.
